nsP2pro inh: blocks chikungunya virus nsP2 protease peptide cleavage; FRET peptide cleavage, nsP2pro, fluorescence 1 h; Potency, µM (highest dose often 24.9 µM), inactives show at the highest dose activity change, negative = inhibition, actives largely listed as inhibitors; 31,000 tested, 1.1% active; active means well fitted inhibition curve with a large enough effect; inconclusive means small, poorly fitted or top-dose-only effect; inactive means no such curve, though single readings can be large or run the other way; also: nearly all actives have a fitted effect of over 60% in size; a reference inhibitor and vehicle were the controls
The depositor's hits bear a star; i = inactive; u = inconclusive; & = joins results of further samples; [ ] = remark or other dose. % is scaled to controls: 0 for no effect and ±100 for the full control effect; potency is read from the fitted curve at half-maximal effect. Not all compounds are listed. The share of hits here may be higher or lower than overall.

SMILES | nsP2pro inh
C[C@@H](CN1CCC(n2c(=O)[nH]c3cc(Cl)ccc32)CC1)NC(=O)c1ccc2ccccc2c1 | 0.1%
Cc1ccc(CNC(=O)CNS(=O)(=O)c2cccs2)cc1 | -4.7%
CC1CCN(C(=O)CSc2nnc(-c3ccccc3)o2)CC1 | -12.6%
CCC(=O)NC(c1ccco1)c1cc(Cl)c2ccccc2c1O (configuration not stated) | i
CCC1Oc2ccc(NC(=O)Cc3ccc(OC)cc3)cc2CN(Cc2ccc3c(c2)OCO3)C1=O (configuration not stated) | i
C[C@@H]1O[C@@H](OC2CCC3(C=O)C(CCC4C3CCC3(C)C(C5=CC(=O)OC5)C(O)CC43O)C2)[C@H](O)[C@H](O)[C@H]1O[C@@H]1O[C@H](CO)[C@@H](O)[C@H](O)[C@H]1O (some centres not stated) | 55.7%[activator][10 µM]
COc1ccc(-c2cc([C@H]3CN4CC[C@H]3C[C@@H]4COC(=O)NC3CCCCC3)nc(C)n2)cc1 | i
CN(C)[C@@H]1C[C@@H](CO)N(C(=O)c2csc3nc(-c4ccccc4Cl)cn23)C1 | i
CC1=CC2/C=C(\C)CCC(O)C/C=C/C(=O)OC23C(=O)NC(CC(C)C)C3C1C (configuration not stated) | u
Cc1ccc(-n2nc(C)c3nc(CCC(=O)Nc4cccc(C)c4C)c(=O)n(C)c32)cc1 | -26.0%
O=C(NCc1cc2n(n1)CCCNC2)c1ccc(Cn2cnnn2)cc1 | i
C[C@@H]1O[C@@H](O[C@@H]2[C@@H](O)[C@@H](O[C@]3(CO)O[C@H](CO)[C@@H](O)[C@@H]3OC(=O)/C=C/c3ccc(O)cc3)O[C@H](CO)[C@H]2OC(=O)/C=C/c2ccc(O)cc2)[C@H](O)[C@H](O)[C@H]1O[C@@H]1O[C@@H](C)[C@H](O[C@@H]2OC[C@](O)(CO)[C@H]2O)[C@@H](O)[C@H]1O | -14.0%[5.1 µM]
CN(C)Cc1nnc(C2CC(NC(=O)c3cc(-c4cccn4C)n[nH]3)C2)n1C (configuration not stated) | 0.501µM*
C=C1[C@@H]2CC[C@@]3(C)[C@H](c4ccoc4)OC(=O)C[C@]13O[C@H]1CC(=O)C(C)(C)[C@H](C(O)C(=O)OC)[C@]12C (some centres not stated) | -18.1%[10 µM]
Clc1ccc(-c2cc3c(cn2)CN(Cc2ccncc2)CCN3)cc1 | u
Cc1ccc(OCC(=O)Nc2ccc3nc(SCC(=O)N4CCc5ccccc54)sc3c2)cc1 | -3.2%
CN1C(=O)[C@]23C[C@H]4C(C)(C)[C@]5(CNc6c5ccc5c6OC=CC(C)(C)O5)C[C@@]41CN2CC[C@@]3(C)O | 21.4%
Nc1ncnc2c1ncn2[C@@H]1O[C@H](COP(=O)(O)O)[C@@H](O)[C@H]1O | -9.2%
Cc1nc(C2(C)CCN(C(=O)c3ccc(Cc4c(C)noc4C)o3)CC2)no1 | -13.0%
Cc1ccc(-c2ccc(=O)n(CC(=O)N(C)C(C)c3cccs3)n2)cc1 (configuration not stated) | -1.5%
N#Cc1nc(Nc2cc(F)cc(F)c2)c2ncn(CCCO)c2n1 | -2.8%
CC(CSC(=O)c1ccccc1)C(=O)N1C[C@@H](Sc2ccccc2)C[C@H]1C(=O)O (some centres not stated) | -10.5%[10 µM]
N[C@@H](CCC(=O)O)C(=O)Nc1ccc(Cl)cc1C(=O)c1ccc[nH]1 | 4.7%
CCCOc1ccc(C(=O)N(Cc2cccs2)C2CCS(=O)(=O)C2)cc1 (configuration not stated) | -11.3%
CCc1cccc(C)c1NC(=O)c1cc(C)nc2c1c(C)nn2-c1cccc(Cl)c1C | -18.4%
CCCn1c(-c2ccc(F)cc2)nc2c(NCCCCN(CC)CC)nc(C)nc21 | 0.7%
CCCNC(=O)N(C1CCOCC1)C1CCN(C(=O)Cc2cccnc2)CC1 | 4.1%
COc1ccc(C(=O)Nc2cc(C)c(O)c(-c3nc4ccccc4s3)c2)cc1OC | -7.1%
COc1cccc(-c2cn3c(n2)N(C(=O)Cc2cccs2)CCC3)c1 | -1.9%
COc1ccc(NC(=O)C(=O)NCc2ccco2)c(OC)c1 | u
C[C@@H](NCCCc1cccc(C(F)(F)F)c1)c1cccc2ccccc12 | 0.3%
COc1ccc(CN2CCC(N3Cc4cccn4C3=O)CC2)cc1 | 3.0%
COCCOCc1nc(C2CCCCN2C(=O)NCc2ccc(F)cc2)no1 (configuration not stated) | i
Clc1ccccc1-c1nnc(SCc2nc(-c3ccccc3)no2)n1-c1ccccc1 | -12.2%
Cc1ccc(Cl)cc1NC(=O)CSc1ccc(C(=O)O)cn1 | -11.4%
O=S(=O)(c1ccccc1)c1nc(-c2ccccc2Cl)oc1N1CCCCCC1 | -13.2%
C=C(C)[C@@H]1CC[C@]2(C(=O)O)CC[C@]3(C(=O)O)[C@H](CCC4[C@@]5(C)CCC(=O)C(C)(C)C5CC[C@]43C)C12 (some centres not stated) | 14.5%[10 µM]
COc1ccc(CC(=O)NCCS(=O)(=O)N2CCN(c3ccc(F)cc3)CC2)cc1OC | -19.7%
O=C(c1ccc2c(c1)OCCO2)N1CCC(Cn2cc(CCO)nn2)CC1 | -11.2%
CCNC(=O)NCCc1ncc(C)n1CC1CC1 | -26.2%
CCOc1ccc(-c2ccc(Cn3c(CC(C)(C)C(=O)O)c(SC(C)(C)C)c4cc(OCc5ccc(C)cn5)ccc43)cc2)cn1 | 118.9%[activator]
CCOc1ccc(CCNCc2c(C(=O)O)c(C)n(Cc3ccccc3F)c2C)cc1 | -11.0%
Cc1ccc(CCNC(=O)c2cc(-c3ccc(Cl)cc3)n[nH]2)cc1 | -12.1%
O=[S+]([O-])(c1c(F)cccc1F)N1CCN([S+](=O)([O-])c2c(F)c(F)c(F)c(F)c2F)CC1 | u
COc1ccc(CCNC(=O)CCCn2c(=O)c3cccn3c3cccnc32)cc1OC | -15.8%
NC(=O)CSc1nc2c(oc3ccccc32)c(=O)n1-c1ccccc1F | -18.7%
COc1cc(O)c(C(CC(=O)N2CCOCC2)c2ccc(C)cc2)c(OC)c1 (configuration not stated) | -17.1%
O=C(CCC1N=C2c3ccccc3N=C(SCc3ccc(Cl)cc3)N2C1=O)NCc1cccs1 (configuration not stated) | -18.2%
Cc1cccc(C(=O)Nc2ccc(OCc3cc(=O)n4c5c(sc4n3)CCCC5)cc2)c1 | -17.5%
CC(C)(C)CC(C)(C)c1ccc(OCC(=O)Nc2ccc(S(=O)(=O)Nc3ncccn3)cc2)cc1 | -25.4%
Remaining list, next part:
SMILES | nsP2pro inh
CN(C)[C@@H]1CCc2[nH]c3ccc(NC(=O)c4ccc(F)cc4)cc3c2C1 | -11.9%
CN(C)C[C@@H]1CN(C2CCOCC2)C[C@H]1NC(=O)c1nccc2ccccc12 | -5.0%
Cc1cc(C)c(-c2csc(NC(=O)c3ccccc3)n2)c(C)c1 | 28.2%
CS(=O)(=O)NC[C@H]1C[C@@H]2CCN1C[C@@H]2CN1CCc2ccccc2C1 | i
CN1CC[C@H](CN2c3ccccc3Sc3ccccc32)C1 | 0.9%
COCC1CN(C)CC12CCN(S(=O)(=O)c1cccs1)CC2 (configuration not stated) | i
Cc1ccc2c(c1)CC(C)N2S(=O)(=O)c1nnc(NC(=O)CC(C)C)s1 (configuration not stated) | -21.7%
O=C1CN2CCOC2(c2ccccc2Cl)c2cc(Cl)ccc2N1 (configuration not stated) | 11.9%
Cn1c(=O)c2c(SCC(=O)N3CCc4ccccc43)nc(-c3ccccc3Cl)nc2n(C)c1=O | -13.7%
CCOC(=O)[C@H](Cc1ccc(F)cc1)NC(=O)[C@@H](N)Cc1ccc(N(CCCl)CCCl)cc1 | -6.3%

Some of the entries above in another layout.
SMILES	nsP2pro inh
Cc1ccc2c(c1)CC(C)N2S(=O)(=O)c1nnc(NC(=O)CC(C)C)s1 (configuration not stated)	-21.7%
O=C1CN2CCOC2(c2ccccc2Cl)c2cc(Cl)ccc2N1 (configuration not stated)	11.9%
Cn1c(=O)c2c(SCC(=O)N3CCc4ccccc43)nc(-c3ccccc3Cl)nc2n(C)c1=O	-13.7%
CCOC(=O)[C@H](Cc1ccc(F)cc1)NC(=O)[C@@H](N)Cc1ccc(N(CCCl)CCCl)cc1	-6.3%

Additional records:
SMILES | nsP2pro inh
CC(C)C(NS(=O)(=O)c1cccc2cccnc12)C(=O)Nc1ccc(OC(F)(F)F)cc1 (configuration not stated) | -14.2%
Clc1ccccc1C1(c2ccnc(NCCc3ccncc3)n2)CCNCC1 | i
COc1ccc(CNC(=O)C2=NO[C@@H]3CN(c4ccccn4)C[C@H]23)cc1OC | -4.8%[39.2 µM]
CCCS(=O)(=O)NCC1CN(CC2CC2)CC12CCCCC2 (configuration not stated) | 2.3%
O=C(C1CC1)N1CC[C@H](c2nc3ccccc3o2)C1 | u
COc1ccc(N2CCOCC2)c2sc(NC(=O)N3CCC(C)(O)CC3)nc12 | -23.4%
CCn1ccnc1CN1CCC(Oc2ccccc2OC)(C(=O)O)CC1 | -4.0%
O=C(Cn1nc2n(c1=O)CCCCC2)N1CCN(c2ccc(F)cc2)CC1 | 11.6%
COc1cccc(N2CC(NC(=O)/C=C\c3ccccc3)CC2=O)c1 (configuration not stated) | -0.4%
O=C(CCn1cncn1)N1CCc2ncnc(N3CC=CC3)c2CC1 | -0.3%
C[C@]12CC[C@H]3[C@@H](CCC4=CC(=O)CC[C@@]43C)[C@@H]1CC[C@@H]2OC(=O)CCc1ccccc1 | -14.7%
C1=C(c2cnc[nH]2)c2ccsc2CC1 | u
CO[C@H]1C(=O)[C@]2(C)[C@@H](OC)C[C@H]3OC[C@@]3(OC(C)=O)[C@H]2[C@H](OC(=O)c2ccccc2)[C@]2(O)C[C@H](OC(=O)[C@H](O)[C@@H](NC(=O)OC(C)(C)C)c3ccccc3)C(C)=C1C2(C)C | 8.5%
O=C(c1ccc(F)cc1Cl)N1CCN(C(=O)c2nnn3c2COC(c2ccccc2)C3)CC1 (configuration not stated) | i
CCN1CCN(C(=O)Cc2ccc(Nc3ncc(F)c(Nc4ccc(C(=O)Nc5ccccc5Cl)cc4)n3)cc2)CC1 | 52.2%[activator]
CC(O)c1ccc(-c2ccc3ncnc(N4CCOCC4)c3c2)o1 (configuration not stated) | 10µM*
CCCCN1CCN(C(=O)c2cn3ccnc(-c4ccccc4)c3n2)CC1 | i
COc1ccc(Cl)cc1NC(=O)Cn1nnc(C(=O)NCc2cccs2)c1N | -19.5%
CC(C)N1CCN(C(=O)C2CCN(c3cnn(CC4CC4)c(=O)c3)C2)CC1 (configuration not stated) | 2.2%
Cn1cc(C2=C(c3cn(C4CCN(Cc5ccccn5)CC4)c4ccccc34)C(=O)NC2=O)c2ccccc21 | 67.2%[activator]

3 entries from above in a different format:
C1=C(c2cnc[nH]2)c2ccsc2CC1
  nsP2pro inh: u

CC(C)N1CCN(C(=O)C2CCN(c3cnn(CC4CC4)c(=O)c3)C2)CC1 (configuration not stated)
  nsP2pro inh: 2.2%

Cn1cc(C2=C(c3cn(C4CCN(Cc5ccccn5)CC4)c4ccccc34)C(=O)NC2=O)c2ccccc21
  nsP2pro inh: 67.2%[activator]

More structures:
SMILES | nsP2pro inh
O=c1ccn(C2OC(CO)C(O)C2O)c(=O)[nH]1 (configuration not stated) | -12.7%&-22.6%
COC(=O)c1cccc(NC(=O)c2nsc3ccccc23)c1 | -15.8%
Cc1ccc(CCNC(=O)c2cc(C)nc3c2c(C)nn3-c2ccc(C)cc2)cc1 | -25.0%
COc1cccc(-c2nn(C)c3sc(C(=O)NCCc4cccc(C)c4)cc23)c1 | -6.3%
CC(C)(C)c1ccc(C(=O)Nc2cc(Cl)c(Br)cc2C(=O)O)cc1 | 103.9%[activator]
CC(=O)[C@@]1(O)CC[C@H]2[C@@H]3C[C@H](C)C4=CC(=O)C=C[C@]4(C)[C@@]3(F)[C@@H](O)C[C@@]21C | 3.6%
Cc1cc(-c2nnc3n2CCCC3)c(C)n1-c1ccccc1 | u
Cn1cnc(S(=O)(=O)N[C@H]2CCN(C(=O)c3ccco3)[C@H](C(=O)N[C@@H](Cc3cccs3)C(N)=O)C2)c1 | u
CN(C)[C@H]1CCN(C(=O)Cc2cn(C)c3ccccc23)C[C@H]1CCC(=O)O | 1.3%
COc1ccccc1Nc1nc(-c2ccccc2F)nc2ccccc12 | 2.3%
C[S+](=O)([O-])N1CC2(CCCN2CC2CC2)Cc2ccccc21 (configuration not stated) | -21.7%
CC(C)C(=O)N[C@H]1[C@H](O)[C@H](O)C[C@@H]1c1ccc(C(F)(F)F)nc1 | -6.2%[39.2 µM]
Cc1nn(C(=O)c2ccc(Cl)cc2)c(C)c1S(=O)(=O)N1CCOCC1 | u
COc1ccc(-c2nc3ccccc3s2)cc1 | i
CCCCCCCCCCCCCCCCCC(=O)OCCO | -4.6%
CCCn1c(SCc2nc(-c3ccccc3C)no2)nnc1-c1ccc(Cl)cc1 | -15.3%
CCC1Oc2ccccc2N(CC(=O)NCc2ccc(C)cc2)C1=O (configuration not stated) | -16.9%
CC(C)OCCCNC(=O)CN1C(=O)CSc2ccc(S(=O)(=O)N3CCCCC3)cc21 | -30.2%
Cc1ccc(N2CC3=C(C2=O)C(c2ccc(Br)cc2)NC(=O)N3C)cc1 (configuration not stated) | -25.8%
O=C(N[C@H]1CCN2C(=O)c3ccccc3NC(=O)[C@H]12)c1cccc(F)c1 | 2.3%[39.2 µM]
O=[N+]([O-])c1cc(-c2nc(-c3ccccn3)no2)ccc1NCc1ccccc1 | -9.2%
CCN(CC)CCNC(=O)c1c(C)[nH]c(/C=C2\C(=O)Nc3ccc(Cl)cc32)c1C | 80.0%[activator]

Screening data as filed in PubChem BioAssay.
